StopGo reporter: High Throughput Screening for Foot and Mouth Disease Virus Antivirals; actives 1.2% (n = 410,000); human cells with a luciferase reporter of 2A StopGo recoding; control for the full effect not named in the record; Potency, µM (titrated, usually from 57.9 µM), without a hit: at the highest dose signal change, negative = less light; active = well fitted falling curve with a large enough effect; inconclusive = small, poorly fitted or top-dose-only effect; inactive = no such curve, though single readings can be large or run the other way; tested in HEK293T cells; note: nearly all actives have a fitted effect of over 45% in size; luciferase light after 4 h
RE007 growth inh: qHTS Assay for Inhibitors of the HIV-1 protein Vpr | S. pombe RE007 Vpr strain, BacTiter-Glo ATP luminescence, 24 h; control for the full effect not named in the record | Potency, µM (highest dose often 92.2 µM), without a hit: top-dose activity change, negative = less growth | actives 0.21% (n = 360,000) | AID 651644, 2012; active = well fitted falling curve with a large enough effect; inconclusive = small, poorly fitted or top-dose-only effect; inactive = no such curve, though single readings can be large or run the other way;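 note: nearly all actives have a fitted effect of over 50% in size; the assay follows cell death caused by Vpr and the record does not say whether a fall means rescue or toxicity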
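Fission yeast strain RE007, carrying one chromosomally integrated HIV-1 vpr copy, was seeded at OD 0.01 in PMG+AL medium with 23 nL pinned compound. After 24 h at 30 °C and 99% humidity, viability was read by BacTiter-Glo luminescence.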
* = called active by the depositor; ? = inconclusive; [ ] = dose if it differs, or a comment. % is set by controls: 0 for no effect and ±100 for the full control effect; potency is the fitted concentration of half-maximal effect.

SMILES	StopGo reporter	RE007 growth inh
O=C(c1ccccc1Cl)c1c(O)c2ccccc2oc1=O	15.9%	-2.7%
CCOC(=O)C1=CCN(S(=O)(=O)c2ccccc2Br)C1c1cccc(C)c1 (stereo not drawn)	-23.3%	-2.6%
CCOc1ccc(C(=O)Nc2cc(=O)n(C)c(=O)n2C)cc1	5.8%	7.2%
CC1(C(=O)Nc2ccc3[nH]ncc3c2)CCN1C(=O)C/C=C/c1ccccc1 (stereo not drawn)	-17.6%	3.8%[18.4 µM]
CCC(=O)N1CCC1(C)C(=O)Nc1cccc(OC)c1 (stereo not drawn)	-6.4%	-18.9%[18.4 µM]
Cc1cn(CC(=O)NCC(c2ccccc2)c2ccccc2)c(=O)[nH]c1=O	-11.1%	8.1%
COc1cccc(-c2cc(C(=O)O)c3cc4ccccc4cc3n2)c1OC	34.4%[activator]	15.4%
O=C(COC(=O)c1cc(S(=O)(=O)N2CCCCC2)ccc1Cl)NC1CCCCC1	-21.4%	-15.3%
CN(C(=O)c1cccc(NC(=O)Cc2ccc(NC(=O)C3CCN(C(=O)C4CCCC4)CC3)cc2)c1)C1CCCC1	?	17.0%
COc1ccc2sc3cccc(NCCN(C)C)c3c(=O)c2c1	16.5%	-13.0%[18.4 µM]
CC(C)OC(=O)CC(=O)CC(O)c1cccc([N+](=O)[O-])c1 (stereo not drawn)	-23.7%	-0.2%
CCN(Cc1ccncc1)C(=S)Nc1ccccc1C	-20.7%	12.5%
COc1ncnc2c1ncn2CCCN1CCN(c2ccccn2)CC1	-14.5%	-8.3%
CC(C)=CCn1c2ccc(NC(=O)NCc3ccc(F)cc3)cc2c(=O)n1C	-8.7%	3.1%
CC(=O)c1ccccc1OC(=O)c1ccc(-c2ccccc2)cc1	-1.7%	?
CCCCNC(=O)c1nc(-c2cnc(C)cn2)oc1-c1ccc(Cl)cc1	-23.4%	5.2%
CCCN(C)C[C@H]1Oc2cc(C#Cc3ccc(F)cc3)ccc2S(=O)(=O)N([C@H](C)CO)C[C@@H]1C	8.1%	10.9%
Cc1cccc(C)c1NC(=O)C(c1ccc(C#N)cc1)n1c(=O)c(-c2cc3ccccc3[nH]2)nc2ccccc21 (stereo not drawn)	12.9%	-5.2%
CCCc1cnc(Nc2nc(C(N)Cc3ccc(OC)cc3)cs2)nc1 (stereo not drawn)	-13.2%	5.1%[18.4 µM]
COCC(=O)N[C@H]1C=C[C@@H](CC(=O)NCc2ccccc2OC)O[C@@H]1CO	-7.4%	12.8%
Cc1cc2oc3cc(NCCC4CCCN4C)ccc3c(=O)c2cc1C (stereo not drawn)	34.0%[activator]	?
O=S1(=O)C[C@H](N2CCOCC2)[C@@H](COCc2ccccc2)N1	-19.0%	2.8%
COc1cccc(C(C)(O)c2nc(-c3csc4ccccc34)cs2)c1 (stereo not drawn)	-5.8%	7.9%[18.4 µM]
Cc1cc(N2CCN(C(C(=O)NC3CCCC3)C(C)C)CC2)c2ccccc2n1 (stereo not drawn)	-8.8%	-26.8%
O=C(Nc1ncccn1)c1cccc(Cl)c1	15.4%	-4.4%
C[C@H]1CN([C@@H](C)CO)C(=O)CCCn2nncc2CO[C@@H]1CN(C)Cc1cccc2c1OCCCO2	-10.5%	-1.0%
COc1ccc(CN(C)CCCn2cnc(C(=O)Nc3ccc(C)c(C)c3)n2)cc1OC	-17.3%	-4.6%
CCCNC(=O)C1(C)CCCN(Cc2cc(-c3ccccc3)nn2C)C1 (stereo not drawn)	-25.3%	-10.9%[18.4 µM]
COc1cccc(NC(=O)N2CCc3nc(Nc4cc(Cl)cc(Cl)c4)ncc3C2)c1	-22.6%	-16.0%
O=Nc1ccc(NO)c2ccccc12	-14.7%	-19.0%
CC(=O)c1ccc(S(=O)(=O)N2CCN(CC(=O)Nc3ccnn3C3CCCC3)CC2)cc1	-27.6%	31.3%
COc1ccc(Nc2nc(NCc3cccs3)nc3ccsc23)cc1OC	?	?
CN1CCN(S(=O)(=O)c2ccc(F)cc2)CC1	-3.8%	5.6%
CN(CCc1ccccc1)C(=O)c1ccc(NC(=O)Cc2ccc(NC(=O)C3CCCN(C(=O)C4CCCC4)C3)cc2)cc1 (stereo not drawn)	?	5.0%
CN(Cc1ccc(F)cc1)C(=O)CN1CCN(S(=O)(=O)c2ccc3c(c2)OCCCO3)CC1	?	-7.2%
COC(=O)c1cccc(CN2C(=O)C(C)Sc3ccc(C)cc32)c1 (stereo not drawn)	-10.7%	9.3%
COc1ccc(Nc2c(-c3cc4ccccc4o3)nc3nc(C)cc(C)n23)cc1	10.2%	-12.6%
CC(=O)NC(c1ccccc1)c1nc(-c2cc(F)cc(F)c2)cs1 (stereo not drawn)	-5.6%	-10.7%
COc1cccc(-c2cnc(C(O)c3ccc(Cl)c(F)c3)[nH]2)c1 (stereo not drawn)	32.6%[activator]	-11.9%
O=C(N/N=C/c1ccc(Cl)cc1)c1ccc2nc[nH]c2c1	17.0%	-4.4%
COc1ccc(C(CC(=O)c2ccc3c(c2)OCO3)c2c(O)c3ccccc3oc2=O)cc1OC (stereo not drawn)	69.2%[activator]	-9.8%
O=C(Nc1ccc(F)c(Cl)c1)c1cc(C2CCCN(C(=O)CCc3ccccc3)C2)on1 (stereo not drawn)	5.4%	0.2%
O=S(=O)(NCCS(=O)(=O)N1CCN(c2ccc(F)cc2)CC1)c1ccccc1	-21.6%	5.8%
O=C(NCCc1ccccc1)c1[nH]c(C(F)(F)F)nc1-c1ccccc1	-6.5%	14.3%
Cc1noc(C)c1C(=O)N1CCC1(C)C(=O)NS(=O)(=O)c1ccccc1C(F)(F)F (stereo not drawn)	5.3%	3.3%
Cc1ccc([C@H]2N[C@]3(CCCN(CC4CCCCC4)C3=O)[C@H]3C(=O)N(C)C(=O)[C@@H]23)cc1	-6.0%	5.2%
O=C1CC=Nc2ccc([N+](=O)[O-])cc21	-10.5%	-6.9%
Fc1cccc(Cc2c(-c3cccc(Br)c3)nc3c(Cl)cc(C(F)(F)F)cn23)c1	15.4%	-18.3%
COc1ccc(NC(=O)C[C@H]2C(=O)N(c3ccc(OC)cc3)C[C@@H]2c2ccc(Br)cc2)cc1	3.9%	-6.4%
COCCN(C(=O)c1ccc(N(C)S(=O)(=O)c2ccc(C)cc2)cc1)c1c(N)n(CC(C)C)c(=O)[nH]c1=O	-20.2%	15.9%
CCCS(=O)(=O)NC(=O)C1(C)CCN(C(=O)c2ccc3ccccc3c2)C1 (stereo not drawn)	-16.8%	16.1%
CNc1ccc(-c2cccc(CO)c2)cn1	31.2%[activator]	-11.3%
COc1ccc(-c2nc3c4ccccc4ccn3c2CC2CCCCC2)cc1OC	34.3%[activator]	-25.7%
O=C(c1cc2c(c(-c3cccc(-c4ccc(F)cc4)c3)n1)[C@H](CCO)N(C(=O)c1ccc3c(c1)OCO3)C2)N1CCOCC1	-16.9%	-3.5%
Cc1ccc(S(=O)(=O)N(C)c2ccc(OCC(=O)OCc3cccc(Br)c3)cc2)cc1	-25.7%	9.6%
COc1cccc(-c2cccc3c2NC(=O)C3(C)Cc2cccc(F)c2)c1 (stereo not drawn)	35.5µM*	-12.4%[18.4 µM]
O=C(O)c1ccc(N2C(=O)c3ccccc3C2=O)cc1[N+](=O)[O-]	-9.9%	11.9%
CC1(C(=O)Nc2cccc(Oc3ccccc3)c2)CCN1Cc1ccccc1Cl (stereo not drawn)	-11.7%	7.6%[18.4 µM]
CNc1ccc(-c2cccc(C#N)c2)cn1	33.9%[activator]	4.5%
C#CCNC(=O)c1csc([C@@H]2O[C@H](CO)[C@@H](O)[C@H]2O)n1	-15.4%	-6.9%
(cont.)
SMILES	StopGo reporter	RE007 growth inh
O=C(Cc1c(F)cccc1Cl)NC1CCN(Cc2ccccc2)CC1	-18.2%	-13.8%
Cc1cc2nc(-c3ccco3)c(CC(C)(C)C)n2c(C)c1Br	-5.1%	-19.7%
COc1ccccc1NS(=O)(=O)c1ccc(C(=O)NCC(c2ccco2)N2CCCCC2)cc1 (stereo not drawn)	-21.9%	-5.5%
CCOc1ccc(CCN2C(=O)C(=O)N([C@@H](CC(C)C)CN3CCC[C@@H]3CN3C(=O)C(=O)NC[C@@H]3CC(C)C)C[C@@H]2Cc2ccccc2)cc1	-7.2%	3.2%
O=P(c1ccccc1)(c1ccccc1)c1ccccc1C(Br)Br	0.0%	-3.9%
COc1ccc([C@H]2N[C@]3(CCCN(CC4CCCCC4)C3=O)[C@H]3C(=O)N(Cc4ccccc4)C(=O)[C@@H]23)cc1	-12.6%	12.1%
CC1(C(=O)NS(=O)(=O)c2cccc(Cl)c2)CCN1C(=O)c1ccccc1 (stereo not drawn)	-12.5%	-18.4%
CC(C)C1OC(CCc2ccccc2)Cc2[nH][nH]c(=O)c21 (stereo not drawn)	20.0%	14.3%
CCOC(=O)C1=CCN(S(=O)(=O)c2ccccc2F)C1c1cccc(C)c1 (stereo not drawn)	-13.1%	11.3%
COCCNc1nc(Oc2ccc(C(N)=O)cc2)c2sccc2n1	-25.0%	2.9%
C[C@H]1CN([C@@H](C)CO)C(=O)CCCn2nncc2CO[C@H]1CN(C)C(=O)C1CCCCC1	-13.4%	5.6%
COC(=O)[C@@]1(Sc2ccc(C)cc2)CC(=O)N[C@@H]1c1ccccc1	-2.0%	4.9%
C[C@@H]1CCC[C@]2(O[C@H](CCO)C[C@@H](O)[C@@H]2O)O1	-1.3%	12.6%
CC(C)NC(=O)c1cc(C2CCCCN2S(=O)(=O)c2cccc3cccnc23)on1 (stereo not drawn)	3.1%	0.4%
COc1cc(/C=C/CNC[C@H]2O[C@@H](n3cc(C)c(=O)[nH]c3=O)C[C@@H]2O)ccc1O	0.0%	-7.6%

Part of the list above in order of formula weight, highest first.
SMILES	StopGo reporter	RE007 growth inh
COCCN(C(=O)c1ccc(N(C)S(=O)(=O)c2ccc(C)cc2)cc1)c1c(N)n(CC(C)C)c(=O)[nH]c1=O	-20.2%	15.9%
Cc1cccc(C)c1NC(=O)C(c1ccc(C#N)cc1)n1c(=O)c(-c2cc3ccccc3[nH]2)nc2ccccc21 (stereo not drawn)	12.9%	-5.2%
COc1ccc([C@H]2N[C@]3(CCCN(CC4CCCCC4)C3=O)[C@H]3C(=O)N(Cc4ccccc4)C(=O)[C@@H]23)cc1	-12.6%	12.1%
CC(=O)c1ccc(S(=O)(=O)N2CCN(CC(=O)Nc3ccnn3C3CCCC3)CC2)cc1	-27.6%	31.3%
O=C(COC(=O)c1cc(S(=O)(=O)N2CCCCC2)ccc1Cl)NC1CCCCC1	-21.4%	-15.3%
O=S(=O)(NCCS(=O)(=O)N1CCN(c2ccc(F)cc2)CC1)c1ccccc1	-21.6%	5.8%
CC1(C(=O)Nc2cccc(Oc3ccccc3)c2)CCN1Cc1ccccc1Cl (stereo not drawn)	-11.7%	7.6%[18.4 µM]
COc1cc(/C=C/CNC[C@H]2O[C@@H](n3cc(C)c(=O)[nH]c3=O)C[C@@H]2O)ccc1O	0.0%	-7.6%
COc1ccc(-c2nc3c4ccccc4ccn3c2CC2CCCCC2)cc1OC	34.3%[activator]	-25.7%
CCOC(=O)C1=CCN(S(=O)(=O)c2ccccc2F)C1c1cccc(C)c1 (stereo not drawn)	-13.1%	11.3%
CCCS(=O)(=O)NC(=O)C1(C)CCN(C(=O)c2ccc3ccccc3c2)C1 (stereo not drawn)	-16.8%	16.1%
Cc1cn(CC(=O)NCC(c2ccccc2)c2ccccc2)c(=O)[nH]c1=O	-11.1%	8.1%
CC(=O)c1ccccc1OC(=O)c1ccc(-c2ccccc2)cc1	-1.7%	?
O=C(c1ccccc1Cl)c1c(O)c2ccccc2oc1=O	15.9%	-2.7%
CC(C)OC(=O)CC(=O)CC(O)c1cccc([N+](=O)[O-])c1 (stereo not drawn)	-23.7%	-0.2%
CCN(Cc1ccncc1)C(=S)Nc1ccccc1C	-20.7%	12.5%
CCC(=O)N1CCC1(C)C(=O)Nc1cccc(OC)c1 (stereo not drawn)	-6.4%	-18.9%[18.4 µM]
O=C1CC=Nc2ccc([N+](=O)[O-])cc21	-10.5%	-6.9%

Continuation.
SMILES	StopGo reporter	RE007 growth inh
CSC1=NC=C(C#N)C2=NC(c3c(Cl)cccc3Cl)NN12 (stereo not drawn)	39.8µM*	-3.2%[18.4 µM]
CC1(C)N=C(N)N=C(N)N1c1ccc(OCC(=O)N2CCOCC2)c(Cl)c1	0.0%	-5.4%
CCCC(=O)N1CCCC1(C)C(=O)Nc1ccc2nc(C)ccc2c1 (stereo not drawn)	-20.3%	-29.8%
C[C@H](c1ccccc1)N1C[C@H](COCc2ccccc2)Oc2cc(N3CCC[C@@H]3CO)ccc2S1(=O)=O	5.9%	14.9%
C[C@@H]1CN([C@@H](C)CO)C(=O)CCCn2nncc2CO[C@@H]1CN(C)S(=O)(=O)c1cccs1	-25.8%	0.8%
CCN(CCO)CC1CCCC2CCCCC21 (stereo not drawn)	-23.9%	-13.8%

A portion of the library, so the mix of outcomes need not match the whole.
